Polio RdRp inh: poliovirus RdRp elongation inhibitors, primary screen, biochemical, fluorescence polarization, total intensity | Genome polyprotein (Poliovirus type 1 (strain Mahoney)), P03300 | AID 588519, 2011 | 0.66% of 150,000 active | % elongation, % (compound at 16.7 µg/mL) | poliovirus polymerase elongation; hits give low values; in the data active means % elongation below about 90%; further: some results filed as inactive read as strong as hits
Target sequence (P03300 1749-2209 limits assumed): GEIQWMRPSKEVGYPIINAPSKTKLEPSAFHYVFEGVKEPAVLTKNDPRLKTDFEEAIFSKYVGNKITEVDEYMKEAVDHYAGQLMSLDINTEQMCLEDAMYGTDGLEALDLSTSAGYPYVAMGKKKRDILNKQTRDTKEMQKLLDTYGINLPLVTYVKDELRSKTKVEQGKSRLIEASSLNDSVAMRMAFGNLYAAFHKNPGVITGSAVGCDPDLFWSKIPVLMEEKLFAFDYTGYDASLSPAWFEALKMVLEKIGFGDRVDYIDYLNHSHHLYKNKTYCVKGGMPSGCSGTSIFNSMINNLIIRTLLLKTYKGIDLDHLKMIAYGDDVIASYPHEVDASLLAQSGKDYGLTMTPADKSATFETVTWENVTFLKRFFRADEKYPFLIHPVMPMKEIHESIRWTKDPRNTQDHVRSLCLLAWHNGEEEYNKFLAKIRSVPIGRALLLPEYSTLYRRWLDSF
Polio RdRp inh intensity: recorded beside Polio RdRp inh, whose call it bears; % elongation; measured here: total intensity read-out; formula for this scale not given here;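 total fluorescence in place of polarization; lower means less elongation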
Numbers without * were called inactive.

SMILES	Polio RdRp inh	Polio RdRp inh intensity
COc1ccc(-c2cc(C(C)=O)c(C)n2CCC(=O)Nc2cc(C)ccc2OC)cc1	105	111
CCCCOC(=O)c1ccc(Nc2ncnc3c2cnn3-c2cccc(C)c2)cc1	101	107
Cc1ccc(NC(CNS(=O)(=O)c2ccc(Cl)cc2)c2ccccc2)cc1 (configuration not stated)	109	107
O=C(COc1ccc(F)cc1)Nc1ccc2nc(SCC(=O)N3CCOCC3)sc2c1	104	99
Cc1ccc(C)c(Cn2c3ccccc3c3cnn(CC(=O)NCC(C)c4ccccc4)c(=O)c32)c1 (configuration not stated)	104	105
COc1ccc(N2CCN(Cc3nc4c(c(=O)n(C)c(=O)n4C)n3C(C)C)CC2)cc1	103	114
COc1ccc(CCNc2ncnc3c2c(-c2ccccc2)cn3-c2ccc(F)cc2)cc1OC	112	110
COc1cccc(NC(=O)c2oc3ccccc3c2NC(=O)C23CC4CC(CC(C4)C2)C3)c1	101	100
Cc1ccc(CSc2nc(-c3cccs3)ccc2C#N)cc1	108	111
CCOC(=O)c1c(S(=O)(=O)NCC(=O)Nc2cc(C)ccc2OC)c(C)n(C)c1C	107	108
Cc1ccc(NC(=O)C(Cc2ccccc2)NS(=O)(=O)c2cccs2)cc1Cl (configuration not stated)	107	108
COc1ccccc1N1CCN(C(=O)C2CCCN(S(=O)(=O)c3ccc4c(c3)oc(=O)n4C)C2)CC1 (configuration not stated)	107	110
COc1ccccc1CNC(=O)CCCCn1c(=O)c2ccccc2n(CC(=O)Nc2cccc(Cl)c2)c1=O	105	108
Cc1ccc(-c2csc(-c3nc(-c4ccc(Br)s4)cs3)n2)cc1	104	109
COc1ccccc1NC(=O)CSc1nnc(N)s1	83*	85*
CCc1ccc2occ(CC(=O)Nc3c(C(=O)c4ccc(F)cc4)oc4ccccc34)c2c1	114	113
CC1CCCN(C(=O)Cn2ncc3c([nH]c4ccccc43)c2=O)C1 (configuration not stated)	112	107
Cc1ccc(NC(=O)Cn2c(=O)n(Cc3ccco3)c(=O)c3sc4ccccc4c32)cc1C	108	108
CCc1ccccc1NC(=O)Cn1ccn(Cc2ccccc2)c(=O)c1=O	101	101
Cc1cc(C)cc(OC(=O)c2snnc2C)c1	94	95
Cc1cc(Nc2cccc(F)c2)n2nc(-c3ccco3)nc2n1	105	106
Cc1ccc(NC(=O)Nc2cn(CC(C)C)c(=O)c3ccccc23)cc1N(C)C	73*	75*
CC(C)CN1CCc2nc(N3CCN(c4ncccn4)CC3)ncc2C1	101	98
COc1ccc(CCC(=O)NCc2nc3cccnc3n2Cc2cccc(OC)c2)cc1	101	108
CCCN1C(=O)C2(c3ccccc31)c1c(oc3cc(C)c(C)cc3c1=O)C(=O)N2CCCOC (configuration not stated)	110	112
COc1cccc(C(=O)NCCSc2c(-c3ccc(F)cc3)[nH]c3ccccc23)c1OC	108	109
O=C(CSc1ncc2c(n1)-c1ccccc1N(Cc1ccc(F)cc1)S2(=O)=O)c1ccc(Cl)cc1	108	110
Cc1ccc2ncc(C(=O)NCCc3ccc(S(N)(=O)=O)cc3)c(=O)n2c1	97	108
CCCC1=Nc2cc(C(=O)NCCc3ccc(OC)cc3OC)ccc2Sc2ccccc21	111	105
COC(=O)c1c(NC(=O)Cc2coc3ccc(C(C)C)cc23)sc2c1CCC2	116	116
COc1cccc(CNC(=O)Cc2c(C)c3c(cc(C)c4c(C)coc43)oc2=O)c1	110	107
Cc1ccccc1NC(=O)CS(=O)(=O)c1cccc2nsnc12	102	104
Cc1ccc2[nH]c(CSc3nnc(COc4ccccc4C)n3C)cc(=O)c2c1	103	102
Cc1ccc(C(=O)Nc2cc(-c3nc4ncccc4o3)ccc2C)c(C)c1	109	110
CCN1CCN(C(=O)c2cnn(-c3cccc(C)c3)c2C2CCN(C(=O)OC(C)(C)C)CC2)CC1	107	111
Cc1ccc(NC(=O)Cn2c(=O)oc3cc(S(=O)(=O)N4CCCCC4)ccc32)c(Cl)c1	106	107
Cc1cc(O)c2c(C)c(CC(=O)N3CCCCC3)c(=O)oc2c1	112	105
COc1ccc(-n2c(/C=C/c3cccc(F)c3)nc3ccccc3c2=O)cc1Cl	110	99
COc1ccc(OC)c(CNC(=O)Cn2ncc3c([nH]c4ccc(C)cc43)c2=O)c1	106	110
Cc1cc(Nc2ccccc2F)n2nc(-c3ccccc3)nc2n1	110	111
Cc1ccc(CCNC(=O)Cn2ncc3c([nH]c4ccccc43)c2=O)cc1	108	108
COc1ccccc1C(=O)Nc1ccc(C(=O)OCc2cc(=O)n3nc(C4CC4)sc3n2)cc1	108	110
Cc1ccc(NC(=O)N2CCN(C)c3ncccc32)cc1C	101	106
COc1ccc(NC(=O)CCCSc2nc(-c3ccco3)cc(C(F)(F)F)n2)c(OC)c1	105	109
COc1ccc(-c2nc(C(=O)Nc3cccc(C(C)=O)c3)nn2-c2ccccc2Cl)cc1	104	112
Cc1c(C(=O)Oc2ccc(Br)cc2)sc2ncn(Cc3ccccc3F)c(=O)c12	105	107
CCN(C(=O)C(NS(=O)(=O)c1ccc(Br)s1)c1ccccc1)c1ccc(C)c(C)c1 (configuration not stated)	112	113
COc1ccccc1CNC(=O)c1ccc2c(c1)N(Cc1cccc(C)c1)C(=O)c1ccccc1S2(=O)=O	106	110
CCN(CC)CCNC(=O)c1ccc2c(c1)NC(=O)C(CS(=O)(=O)Cc1ccc(F)cc1Cl)N2 (configuration not stated)	102	90
O=C1C2=C(Nc3ccccc3SC2c2ccccc2C(F)(F)F)c2ccccc21 (configuration not stated)	108	108
COc1cc(NC(=O)C2CCCN(S(=O)(=O)c3ccc4c(c3)oc(=O)n4C)C2)c(C(=O)O)cc1OC (configuration not stated)	110	109
COc1cc(Cl)c(C)cc1NC(=O)CCCN1C(=O)C(c2ccccc2)Oc2cccnc21 (configuration not stated)	101	106
Cc1c(-c2cccc(NC(=O)Nc3ccc(Cl)cc3)c2)nc2ncccn12	111	119
CCOCCc1nn2c(=O)cc(COC(=O)CNC(=O)c3cccc(C)c3)nc2s1	112	112
COc1ccccc1NC(=O)c1c(NC(=O)c2cccs2)sc2c1CCC(C(C)(C)C)C2 (configuration not stated)	97	94
COc1cc(-c2noc(-c3ccc(NCc4cccnc4)c([N+](=O)[O-])c3)n2)cc(OC)c1OC	112	101
COc1ccc2c(c1)CCc1c(C(=O)Nc3c(C)nn(Cc4ccc(C)cc4)c3C)noc1-2	105	101
Cc1ccc(CNC(=O)CSc2ncc3c(n2)-c2cc(Cl)ccc2N(C)S3(=O)=O)cc1	104	113
O=S(=O)(c1ccc2nc(Nc3cccc(F)c3)ccc2c1)N1CCCC1	109	114
COc1ccccc1NC(=O)Cn1c(=O)n(-c2ccccc2Cl)c(=O)c2sc3ccccc3c21	101	106

An excerpt from above in order of heavy-atom count, descending:
SMILES	Polio RdRp inh	Polio RdRp inh intensity
COc1cc(NC(=O)C2CCCN(S(=O)(=O)c3ccc4c(c3)oc(=O)n4C)C2)c(C(=O)O)cc1OC (configuration not stated)	110	109
COc1cc(-c2noc(-c3ccc(NCc4cccnc4)c([N+](=O)[O-])c3)n2)cc(OC)c1OC	112	101
CCN(C(=O)C(NS(=O)(=O)c1ccc(Br)s1)c1ccccc1)c1ccc(C)c(C)c1 (configuration not stated)	112	113

Next part:
SMILES	Polio RdRp inh	Polio RdRp inh intensity
CCCN(C(=O)c1cc2ccc3cccnc3c2[nH]1)c1ccc(F)cc1	107	109
COc1ccc(CCNC(=O)Cn2nc(-c3ccc(Cl)cc3)ccc2=O)cc1OC	114	112
CCCN(CCC)C(=O)Cn1c(SCc2cccc(F)c2)nc2cccnc21	107	114
O=C(NC1CCCCCC1)c1ccc(CS(=O)c2ccc(Br)cc2)o1 (configuration not stated)	99	99
Cc1ccc(NS(=O)(=O)c2ccc(-c3cnc(C4CC4)o3)cc2)cc1N(C)C	112	103
CC(C)CCNC(=O)CCn1c(=O)c2cccn2c2cccnc21	109	105
CC(=O)c1cccc(NC(=O)C(CC(C)C)NS(=O)(=O)c2ccc3c(c2)CCN3C(C)=O)c1 (configuration not stated)	105	104
Cc1cccc(CSc2nc3ccncc3n2CC(=O)N(C)C2CCCCC2)c1	105	106
COc1cccc(Cn2c(CNS(=O)(=O)c3ccc(F)c(Cl)c3)nc3cccnc32)c1	111	100
COc1cc2[nH]c(=O)n(Cc3ccc(C(=O)NCc4ccccc4)cc3)c(=O)c2cc1OC	108	110
Cc1ccccc1Cn1c2ccccc2c2cnn(CC(=O)NCCCc3ccccc3)c(=O)c21	108	110
CC(=O)c1ccc(NC(=O)Cn2nc(C(F)(F)F)c3c2CCCC3)cc1	108	109
Cc1cccc(Cn2c(CNS(=O)(=O)c3ccc(Cl)s3)nc3cccnc32)c1	111	115
COc1ccc(C)cc1NC(=O)NCc1cccn1Cc1ccccc1	113	112
O=C(Nc1ccc2oc(-c3cccnc3)nc2c1)c1ccc(Br)cc1	106	111
Cc1ccc(-n2c(Cc3ccccc3)nnc2SCc2nc(-c3cccs3)no2)cc1	104	105
COc1ccc(OC)c(NS(=O)(=O)c2ccc(-c3cc(C)no3)s2)c1	105	113
CC(=O)N1CCC2(CC1)OC(=O)C(C)=C2C(=O)Nc1ccccc1C(F)(F)F	108	111
Cc1ccc2c(CC(=O)Nc3cccc(C(F)(F)F)c3)coc2c1	117	115
CCC(=O)Oc1ccc(/C=C(\C#N)c2nc3ccccc3[nH]2)cc1OC	105	117
CC(NC(=O)CCSCc1ccccc1F)c1ccccc1 (configuration not stated)	109	113
CCOC(=O)C1=C(CS(=O)(=O)c2ccc(C)c(C)c2)NC(=O)NC1c1ccccc1OCC (configuration not stated)	108	108
CC(=O)Nc1ccc(NC(=O)CCc2c(C)nc3c(c(C)nn3-c3ccccc3)c2C)cc1	109	104
CN(C)c1ccc(Nc2nc3ccccc3n3nnnc23)cc1	108	122
COc1ccc(NC(=O)c2ccc(-c3nc(CSc4ccccc4)c(C)o3)cc2)cc1OC	103	106
CC(=O)N1CCN(c2nc3c(F)cc(F)cc3s2)CC1	112	111
COc1ccc(-n2nnc(-c3nc(-c4ccc5c(c4)OCO5)no3)c2C)cc1Cl	112	111
CCOC(=O)c1c(S(=O)(=O)NCC(=O)Nc2ccc(C)c(N(C)C)c2)c(C)n(C)c1C	109	112
Cc1nc2c(C(=O)NCCc3ccc(Cl)cc3)cnn2c(C)c1Cc1c(F)cccc1Cl	108	111
COc1ccc(S(=O)(=O)NCCc2csc3nc(-c4cccc(C)c4)nn23)cc1F	104	111
Clc1cccc(-c2nc3ccccn3c2Nc2ccc3c(c2)OCCO3)c1	104	104
CCCCN(CC)c1nc(-c2ccccc2F)nc2ccccc12	110	116
CCOc1ccc(C(=O)Nc2c(C(=O)c3ccccc3)oc3ccccc23)cc1	102	108
COc1ccccc1-c1ccnc2c(-c3ccc(Br)cc3)c(C)nn12	109	112
CCOC(=O)c1ccccc1NC(=O)c1c(-c2ccccc2)noc1C	100	106
O=C(C1CCCCC1)N(Cc1cccnc1)c1nc2c(F)cccc2s1	100	99
CCOC(=O)CNC(=O)N1[C@H](c2cccs2)[C@@H](C)C(=O)[C@@H](C)[C@@H]1c1cccs1	108	108
COCCCNC(=O)c1cnc2c(-c3ccc(F)cc3)c(C)nn2c1C	115	113
O=C(CCSCc1ccc(Cl)cc1)N1CCN(c2ccccc2F)CC1	112	109
COC(=O)c1sc(-c2ccccc2)cc1NC(=O)Nc1ccc(Cl)cc1	104	106
Cc1ccc2[nH]c(=O)c3cc(C(=O)N(C)c4ccc(Br)cc4)sc3c2c1	104	105
COc1ccc(C)cc1NC1(c2ccccc2)C(=O)c2ccccc2C1=O	108	110
CCC1CCCCN1CCCNC(=O)CN1C(=O)c2cccnc2Oc2ccc(Cl)cc21 (configuration not stated)	107	106
CCCN1CCN(c2ncnc3sc(C(=O)Nc4ccc(C(C)C)cc4)c(C)c23)CC1	104	106
O=C(Nc1ccccc1C(=O)N1CCCCC1)c1nsc2ccccc12	110	93
Cc1c(-c2nnc(SCC(=O)Nc3ccc(Br)cc3)o2)nnn1-c1ccc(F)cc1	109	115
COc1ccc(NC(=O)CN2C(=O)C(C)N=C(c3ccccc3)c3ccccc32)cc1OC (configuration not stated)	113	108
CC(CCc1ccccc1)NC(=O)Cn1c(=O)nc(-c2ccccc2F)c2cc(Cl)ccc21 (configuration not stated)	101	106
Cc1ccc(C(=O)/C=C/c2cn(CC(O)CN3CCc4ccccc43)c3ccccc23)cc1 (configuration not stated)	109	111
CCCN1CCN(c2cc3c(cc2F)c(=O)c(S(=O)(=O)c2ccc(CC)cc2)cn3CC)CC1	110	110
CCc1ccc(NC(=O)C(NS(=O)(=O)c2cccs2)C(C)C)cc1 (configuration not stated)	106	109
COc1ccc(-c2cn3nc(SCC(=O)Nc4cccc(C)c4C)ccc3n2)cc1	116	109

Part of the list above in another layout.
compound | Polio RdRp inh | Polio RdRp inh intensity
O=C(C1CCCCC1)N(Cc1cccnc1)c1nc2c(F)cccc2s1 | 100 | 99
CCOC(=O)CNC(=O)N1[C@H](c2cccs2)[C@@H](C)C(=O)[C@@H](C)[C@@H]1c1cccs1 | 108 | 108
COCCCNC(=O)c1cnc2c(-c3ccc(F)cc3)c(C)nn2c1C | 115 | 113
O=C(CCSCc1ccc(Cl)cc1)N1CCN(c2ccccc2F)CC1 | 112 | 109
COC(=O)c1sc(-c2ccccc2)cc1NC(=O)Nc1ccc(Cl)cc1 | 104 | 106
Cc1ccc2[nH]c(=O)c3cc(C(=O)N(C)c4ccc(Br)cc4)sc3c2c1 | 104 | 105
COc1ccc(C)cc1NC1(c2ccccc2)C(=O)c2ccccc2C1=O | 108 | 110
CCC1CCCCN1CCCNC(=O)CN1C(=O)c2cccnc2Oc2ccc(Cl)cc21 (configuration not stated) | 107 | 106
CCCN1CCN(c2ncnc3sc(C(=O)Nc4ccc(C(C)C)cc4)c(C)c23)CC1 | 104 | 106
O=C(Nc1ccccc1C(=O)N1CCCCC1)c1nsc2ccccc12 | 110 | 93
Cc1c(-c2nnc(SCC(=O)Nc3ccc(Br)cc3)o2)nnn1-c1ccc(F)cc1 | 109 | 115
COc1ccc(NC(=O)CN2C(=O)C(C)N=C(c3ccccc3)c3ccccc32)cc1OC (configuration not stated) | 113 | 108
CC(CCc1ccccc1)NC(=O)Cn1c(=O)nc(-c2ccccc2F)c2cc(Cl)ccc21 (configuration not stated) | 101 | 106
Cc1ccc(C(=O)/C=C/c2cn(CC(O)CN3CCc4ccccc43)c3ccccc23)cc1 (configuration not stated) | 109 | 111

Some of the compounds tested; count on the stated rates, not on these rows.
